Bioassay records deposited in PubChem BioAssay by National Center for Advancing Translational Sciences (NCATS).
D2 potentiator: human D2 receptor positive allosteric modulation. P14416. AID 624464. potentiation, % (no concentration beside the values). 360,000 tested, 0.23% active. DiscoveRx D2 beta-arrestin cells, luminescence, 90 min; 100% = 57 uM dopamine signal; active = potentiation of 50% or more; inconclusive = 30% to 50%; inactive = 30% or less;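 note: compound concentration not given in the record; tested on top of an EC20 dose of dopamine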
Target sequence (P14416 whole entry, looked up): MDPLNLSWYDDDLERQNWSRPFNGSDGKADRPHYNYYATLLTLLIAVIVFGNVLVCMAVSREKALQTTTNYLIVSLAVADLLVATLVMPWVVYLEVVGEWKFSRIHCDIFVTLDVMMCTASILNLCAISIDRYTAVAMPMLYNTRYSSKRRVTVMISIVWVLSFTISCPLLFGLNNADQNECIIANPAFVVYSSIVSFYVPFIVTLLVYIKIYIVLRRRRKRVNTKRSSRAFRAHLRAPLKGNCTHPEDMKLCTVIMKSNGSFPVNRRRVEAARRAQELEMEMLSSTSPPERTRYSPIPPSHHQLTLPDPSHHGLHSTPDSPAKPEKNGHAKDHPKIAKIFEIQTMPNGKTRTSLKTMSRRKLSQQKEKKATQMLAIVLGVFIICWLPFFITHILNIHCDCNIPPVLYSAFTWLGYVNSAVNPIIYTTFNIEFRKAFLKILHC
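PathHunter beta-arrestin assay in DiscoveRx D2 cells. Compounds were added with an EC20 of dopamine (50 nM final) for 90 min at 37 deg C. Luminescence was read 1 h after detection reagent, with 57 uM dopamine as the EC100 control.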
Six1-Eya2 inh: Six1/Eya2 interaction inhibition; AID 651725; 360,000 tested, 0.56% active; activity change, % (concentration not given with the values); AlphaScreen GST-Six1/His-Eya2 binding, biochemical; stronger effect = lower value; control for the full effect not named in the record; Q15475+O00167; in the data active = activity change below about -65%; inconclusive = about -30% to -65%; inactive = above about -30%; note: % is set by controls: 0 for no effect and ±100 for the full control effect
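Homogeneous AlphaScreen proximity assay pairing GST-Six1 with His-tagged Eya2 (added as 5X mix: 250 nM and 500 nM) in 50 mM Tris pH 8.0, 300 mM NaCl, 1 mM TCEP. Glutathione donor and nickel acceptor beads; 1 h, 37 °C, dark.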
D2 ag: activates the human D2 dopamine receptor; DiscoveRx PathHunter D2 beta-arrestin, luminescence, 90 min; 100% = 57 uM dopamine signal; 360,000 tested, 0.084% active; P14416; activation, % (test concentration not listed); AID 624465; in the data active = activation above about 40%; inconclusive = about 15% to 40%; inactive = below about 15%; note: compound concentration not given in the record; the text of the record calls up to 30% inactive
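Agonist mode: compounds alone added to overnight-plated D2 PathHunter cells for 90 min at 37 C, with 57 uM final dopamine (EC100) defining full response. Beta-arrestin recruitment detected by chemiluminescent reagent, read after 1 h at ambient temperature.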
TRPML1 inh: inhibitors of human TRPML1 channel; TRPML1-inducible cells, Ca2+ dye fluorescence, FDSS; stronger effect = lower value; inhibition of EC80 agonist-evoked calcium signal; 390,000 tested, 0.02% active; AID 624415; activity change, negative = inhibition, % (concentration not given with the values); in the data active means activity change below about -50%; inconclusive means about -30% to -50%; inactive means above about -30%;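 note: stimulus is agonist 54-4 at its EC80 concentration; % is set by controls: 0 for no effect and ±100 for the full control effect; compound concentration not given in the record; the text of the record puts the active cut at -80%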
Target sequence (Q9GZU1 whole entry, looked up): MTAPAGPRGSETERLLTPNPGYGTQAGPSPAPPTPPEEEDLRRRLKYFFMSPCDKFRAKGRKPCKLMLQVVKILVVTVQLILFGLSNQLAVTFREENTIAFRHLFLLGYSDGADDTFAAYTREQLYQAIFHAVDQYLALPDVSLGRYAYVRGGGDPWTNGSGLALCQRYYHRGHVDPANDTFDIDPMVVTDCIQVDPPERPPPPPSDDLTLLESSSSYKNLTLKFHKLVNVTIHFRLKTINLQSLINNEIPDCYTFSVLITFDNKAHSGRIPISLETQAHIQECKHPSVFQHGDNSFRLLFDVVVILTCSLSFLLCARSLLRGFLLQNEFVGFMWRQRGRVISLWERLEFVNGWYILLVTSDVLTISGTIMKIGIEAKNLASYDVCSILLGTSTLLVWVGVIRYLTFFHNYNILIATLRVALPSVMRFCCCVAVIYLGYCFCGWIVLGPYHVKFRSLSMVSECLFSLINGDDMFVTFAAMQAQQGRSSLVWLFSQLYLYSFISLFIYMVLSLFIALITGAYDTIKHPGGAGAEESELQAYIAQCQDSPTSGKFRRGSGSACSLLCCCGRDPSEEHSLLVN
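Tet-induced TRPML1-DL cells loaded with Ca8 no-wash calcium dye were read kinetically on FDSS. Compound addition was followed by EC80 agonist 54-4 (4 uM final); inhibition was read over 110 s.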
TRPML1 agonist: activates the human TRPML1 channel. TRPML1-expressing cells, Ca2+ dye fluorescence, FDSS; host cell line not named in the record; reference of the full effect not given here. activation, % (concentration not given with the values). 410,000 tested, 0.12% active; in the data active = activation above about 50%; inconclusive = about 30% to 50%; inactive = below about 30%; note: 0% is about no effect; the text of the record puts the active cut at 80%
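Cells: TRPML1-DL, 1X Tet inducer, ~16 h at 37 degrees C/5% CO2. Dye: ABD Ca8 no-wash + quencher, 45-90 min RT. Read: 10 s baseline, compound add, 110 s agonist phase; 54-4 EC80 (4uM final), 110 s antagonist phase.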
PINK1 expr mod: modulators of PINK1 expression. Potency, µM (highest dose often 76.6 µM), inactives show at the top dose activation (PINK1 increase), most hits filed as activators. AID 624263. PINK1 immunofluorescence, high-content cytometry, 24 h. 410,000 tested, 0.2% active; active = well fitted activation curve with a large enough effect; inconclusive = small, poorly fitted or top-dose-only effect; inactive = flat fitted curve, though single readings scatter; cell line not stated here;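 note: potency is the fitted concentration of half-maximal effect; % of control where 0% means no effect; nearly all actives have a fitted effect of over 65% in size; a mitochondrial uncoupler was the plate control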
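PINK1 protein level read as immunofluorescence by microplate cytometer in a fixed, stained stable cell line after 24 h exposure to five compound concentrations, with CCCP as control.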
Active calls of the source: *; ? = inconclusive; . = no result given; [ ] = dose if it differs, or a comment. Rows are unselected; overall some 1% were active at least once.

Every second line gives: D2 potentiator, Six1-Eya2 inh, D2 ag, TRPML1 inh, TRPML1 agonist, PINK1 expr mod
> CC(NC(=O)C1CCCN(S(=O)(=O)c2cccs2)C1)c1ccccc1 (configuration not stated)
  -6, 1, -5.4, 6, -0.9, 1.5%
> CCc1ccc(C(=O)c2oc3nc(C)cc(C)c3c2N)cc1
  -7, 1, -0.3, 50, 1.9, 8.1%[38.3 µM]
> O=C(C1CC(=O)N(c2ccc(F)cc2)C1)N1CCC(c2nc3ccccc3[nH]2)CC1 (configuration not stated)
  -10, 7, 1.4, 15, 0.0, 9.4%
> CC1(C)COC(c2cccn2Cc2ccccc2Cl)=N1
  -4, -3, -1.2, 4, 0.8, 0.2%
> Oc1ccc(Br)cc1/C=N/n1c(C2CCCCC2)n[nH]c1=S
  -1, 1, -10, 9, 0.0, 7.5%
> CC1CCN(C(=O)COC(=O)/C=C/c2ccc([N+](=O)[O-])cc2)CC1
  -3, -7, -0.7, -10, 0.4, 2.4%
> Cc1ccc2cc(C#N)c(NCc3ccccc3)nc2c1
  -3, 31, -5.8, 16, 1.0, 7.4%
> O=C(Nc1cccc(NC(=O)c2cccs2)c1)c1ccc(Br)cc1
  -7, 1, -1.7, 6, 2.8, 5.8%
> CCCSCCCNC(=O)CN1C(=O)COc2ccc(S(=O)(=O)N3CCC(C)CC3)cc21
  ., ., ., -8, 1.7, 0.4%
> O=C(O)C1CCCCC1C(=O)Nc1ccc(F)cc1F (configuration not stated)
  -7, 3, 0.5, 4, 0.4, 2.1%[38.3 µM]
> Cc1ccc(NC(=O)C(Cc2ccccc2)N2Cc3ccccc3C2=O)cc1Cl (configuration not stated)
  ., ., ., -20, 2.5, ?
> O=C(CS(=O)CC(=O)Nc1cnc2ccccc2c1)Nc1ccc(Cl)cc1 (configuration not stated)
  -12, -5, 2.9, -2, -0.4, -0.1%
> COc1ccccc1-c1ccc(/C=C2\C=CC(=O)O2)o1
  -5, 54, -1.5, -17, 84*, 0.0%
> O=C(O)C1CCCN1S(=O)(=O)c1cc(Cl)ccc1Cl (configuration not stated)
  -6, 5, -1.6, 6, -0.1, -0.1%[38.3 µM]
> CCOC(=O)C(=CNc1cc(C)nn1-c1ccc(C)cc1)C(=O)OCC
  65*, 1, -0.5, 0, 1.5, 0.1%
> O=C(Cc1csc(Nc2nc(=S)[nH]c3ccccc23)n1)NCc1ccc(Cl)cc1
  -1, -4, 0.0, 60, -0.4, 13%[38.3 µM]
> CC(C)C[C@H]1CN([C@@H](CC(C)C)CN2CCCC2CN2C(=S)NC[C@@H]2Cc2ccccc2)C(=S)N1CCc1ccccc1 (some centres not stated)
  ., -5, ., ., -0.1, 0.8%
> CCN(CC)CCCNC(=O)CCc1c(C)nc2c(c1C)c(=O)n(C)c(=O)n2C
  ., ., ., -18, -0.8, 0.0%
> COc1ccc(CCCNC(=O)C2Cc3c(-c4cccc(C(C)=O)c4)ccnc3O2)cc1 (configuration not stated)
  7, -14, 12, ., -1.1, 6.8%
> Fc1cccc(NC(=S)NNc2ccccc2)c1
  -11, 1, 8.0, 0, 0.3, -1.5%
> CC(C(=O)Nc1ccccc1F)N1CCN(S(=O)(=O)c2ccc(C(F)(F)F)cc2)CC1 (configuration not stated)
  2, 3, -5.7, -14, 1.8, 2.6%
> CC(C)c1cc(NC(=O)CCl)on1
  -6, 9, 4.4, 16, 0.5, 27%
> OC(c1cccc(F)c1)c1ncc(-c2ccc(C(F)(F)F)cc2)[nH]1 (configuration not stated)
  -5, -12, -0.9, 9, -0.5, 24%
> COc1ccc(-n2nnnc2SCC#CCO)cc1
  2, 7, 0.2, -4, 0.5, 0.7%
> Cc1cc(C)c[n+](CC(=O)c2cc3ccccc3oc2=O)c1
  -6, -14, 3.1, -10, 0.2, -0.4%
> CCCn1c(CNc2ccc(Br)cc2)nc2ccccc21
  -15, 1, -4.9, 26, 2.3, 25%
> CCOCCCNC(=S)N1CCN(c2nc(-c3ccc(F)cc3)cs2)CC1
  -3, -16, 7.6, -5, 1.4, 1.5%
> C=CCOc1ccc(/C=C2\SC(=S)N(NS(=O)(=O)c3ccc(C)cc3)C2=O)cc1
  -6, -12, -0.6, -8, 3.6, 5.2%
> CCC(CC)C(=O)c1c[nH]c(C(=O)O)c1
  -4, 0, -3.9, -2, 1.1, -2.5%
> COc1ccc(NC(=S)Nc2ncccc2C)cc1OC
  -6, -4, 1.3, -14, -0.5, 2.2%

3 structures out of the list, arranged by molar mass, lowest first:
Every second line gives: D2 potentiator, Six1-Eya2 inh, D2 ag, TRPML1 inh, TRPML1 agonist, PINK1 expr mod
> CCOC(=O)C(=CNc1cc(C)nn1-c1ccc(C)cc1)C(=O)OCC
  65*, 1, -0.5, 0, 1.5, 0.1%
> O=C(C1CC(=O)N(c2ccc(F)cc2)C1)N1CCC(c2nc3ccccc3[nH]2)CC1 (configuration not stated)
  -10, 7, 1.4, 15, 0.0, 9.4%
> O=C(Cc1csc(Nc2nc(=S)[nH]c3ccccc23)n1)NCc1ccc(Cl)cc1
  -1, -4, 0.0, 60, -0.4, 13%[38.3 µM]

Four records drawn at random from the list so far:
Every second line gives: D2 potentiator, Six1-Eya2 inh, D2 ag, TRPML1 inh, TRPML1 agonist, PINK1 expr mod
> CCCSCCCNC(=O)CN1C(=O)COc2ccc(S(=O)(=O)N3CCC(C)CC3)cc21
  ., ., ., -8, 1.7, 0.4%
> O=C(Nc1cccc(NC(=O)c2cccs2)c1)c1ccc(Br)cc1
  -7, 1, -1.7, 6, 2.8, 5.8%
> COc1ccccc1-c1ccc(/C=C2\C=CC(=O)O2)o1
  -5, 54, -1.5, -17, 84*, 0.0%
> O=C(CS(=O)CC(=O)Nc1cnc2ccccc2c1)Nc1ccc(Cl)cc1 (configuration not stated)
  -12, -5, 2.9, -2, -0.4, -0.1%

Next results.
Every second line gives: D2 potentiator, Six1-Eya2 inh, D2 ag, TRPML1 inh, TRPML1 agonist, PINK1 expr mod
> COc1cc2c(cc1OC)-c1cc(OCc3cccnc3)nc(=O)n1CC2
  -14, -28, -3.8, 28, 1.6, 2.4%
> COc1ccc(Cc2nnc(SCC(=O)N3CCc4ccccc4C3)o2)cc1
  -1, -1, -1.8, 13, -0.5, -1.3%[38.3 µM]
> CC(C)(C)c1ccc(C(=O)NCC(=O)NCc2ccccn2)cc1
  -3, -2, -5.1, -6, 0.0, 0.7%
> CC(C)Oc1nc(-c2ccccc2Cl)nc2ccccc12
  -5, 13, -6.2, -7, 1.8, 15%
> Cc1ccc(Oc2ncnc3sccc23)cc1
  -15, 6, -1.0, 11, -0.7, 0.8%
> CCOCCc1nn2c(=O)cc(COC(=O)COc3ccc(C)c(C)c3)nc2s1
  ., ., ., -3, 1.8, 0.3%
> Cc1ccc(C)c(CN2C(=O)c3ccccc3S(=O)(=O)c3ccc(C(=O)N4CCCCCC4)cc32)c1
  ., ., ., 9, 2.7, 1.0%
> COc1ccc(S(=O)(=O)/C(C#N)=C/Nc2cccc(OC)c2)cc1
  -7, 3, 0.3, 21, 2.0, -1.1%
> Nc1ccc2c3c(ccc([N+](=O)[O-])c13)CC2
  -15, ?, -7.7, -10, 0.2, -0.4%
> O=C(NNS(=O)(=O)c1ccccc1Cl)C1COc2ccccc2O1 (configuration not stated)
  -24, 0, -0.7, -4, -0.3, -2.4%
> Cn1c(NC(=O)CC2CCCCC2)cc(=O)n(C)c1=O
  -3, 5, 2.2, 5, -0.1, 0.9%
> CCC(=O)Nc1sc2c(c1C(=O)Nc1ccccc1C)CCC(C)C2 (configuration not stated)
  ., ., ., -5, 0.4, -0.6%
> C/C(=N\N=c1/scc(C)n1Cc1ccco1)c1cccc([N+](=O)[O-])c1
  0, ?, 0.3, 21, 2.5, 1.7%
> CSc1ccc(C(=O)N2CCc3ccc(NC(=O)c4ccccn4)cc3C2)cc1
  -14, -15, 5.0, 6, 2.3, 1.2%
> O=C(CSc1nnc(NC(=O)c2ccccc2F)s1)NCC1CCCO1 (configuration not stated)
  -3, 7, -0.7, 42, -0.1, -0.6%
> COc1ccccc1CNC(=O)c1ccc(N2CCCC2)c(NC(=O)NCc2ccccc2)c1
  ., ., ., -11, 0.4, -0.9%
> Cc1cccc(N2C(=O)C(Oc3ccc(Cl)cc3Cl)C2C(=O)O)c1C (configuration not stated)
  1, 4, -3.3, -6, -0.2, 2.2%
> CC(C)C(OC(=O)c1cccs1)C(=O)NCc1ccccc1 (configuration not stated)
  5, 3, -15, 1, 2.6, 1.5%
> CC(=O)Nc1ccc(S(=O)(=O)NCC(=O)NNC(=O)COc2c(C)cccc2C)cc1
  -23, -16, 8.9, 5, 1.3, 1.3%
> COc1cccc(C(CNC(=O)C(c2ccccc2)c2ccccc2)N(C)C)c1 (configuration not stated)
  -9, 9, -2.6, 28, -0.4, -1.1%
> CNc1ncnc2c1ncn2[C@H]1CN(CCN2CCOCC2)C[C@@H](CO)O1
  -6, 2, -5.8, ., 0.2, 1.1%
> Cc1cccnc1NC(=O)Cn1nc([N+](=O)[O-])cc1C
  -6, -1, -2.9, 0, 0.4, 1.4%
> O=C(NN1C(=O)c2ccccc2C1=O)c1ccc2c(c1)C(=O)N(CC1CCCO1)C2=O (configuration not stated)
  -1, -13, -2.1, -4, 1.9, 1.1%
> CCOc1cccc(-c2cc(-c3n[nH]c(=S)n3CC)c3ccccc3n2)c1
  -28, -13, -3.0, 38, 2.2, -2.6%[38.3 µM]
> O=C(NCc1cccc(C(F)(F)F)c1)C1CCN(c2ncccn2)CC1
  0, 8, -3.2, -8, -0.8, 3.1%
> O=C(N1CCOCC1)N(Cc1cccs1)C1CCCC1
  -15, 21, 0.4, 9, 0.7, -0.6%
> O=C(N/C(=C\c1ccc([N+](=O)[O-])cc1)C(=O)N1CCOCC1)c1cccc(Br)c1
  -13, -8, -4.8, 22, 0.1, -0.1%
> CCCCN(C(=O)c1ccc(-c2ccc([N+](=O)[O-])cc2)o1)c1c(N)n(CCCC)c(=O)[nH]c1=O
  -9, -6, 0.3, 1, -0.2, ?
> O=C(O)c1cccc2c1C(=O)c1ccc(-c3ccc(F)cc3F)cc1S2(=O)=O
  -11, 1, -4.0, -11, 0.0, 0.1%
> COc1ccc(S(=O)(=O)N(C)C[C@@H]2OCCCC[C@H](C)Oc3ccc(NC(=O)Nc4ccc(C(F)(F)F)cc4)cc3C(=O)N([C@H](C)CO)C[C@H]2C)cc1
  -13, 25, -7.6, 12, 0.5, 1.7%
> CC(Sc1nc2c(c(=O)[nH]1)CCCC2)C(=O)Nc1ccc(Br)cn1 (configuration not stated)
  -9, -3, -3.9, -7, -0.1, 1.4%
> COC(=O)N1C(=O)[C@@](c2ccc(OC)cc2)(C(C)C)N1C(=O)OC
  -8, -2, -1.9, 2, -0.2, -0.1%
> Oc1ccc(Br)cc1/C=N/Nc1nc(N2CCCCC2)nc(N2CCOCC2)n1
  3, 6, 0.0, 10, -0.5, 2.8%
> CC1(c2nnnn2Cc2ccccc2)CCC(=O)N1c1ccc(N2CCOCC2)cc1 (configuration not stated)
  ., 2, ., ., -0.4, 2.2%
> Cc1ccc(NC(=S)Nc2ccc3[nH]c(=O)[nH]c3c2)cc1C
  -15, -3, -7.7, 26, -0.1, 1.6%
